Bioassay records from PubChem BioAssay.
PABP FP inh – PABP-poly(A) binding inhibition; P11940; PABP-poly(A) RNA binding, fluorescence polarization; inhibition, % at 35 µM; 1% of 290,000 active; AID 2014;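 active = 50% or more with normal probe brightness, or confirmed in later tests; inconclusive = above 50% with abnormal brightness, or retests that disagree; inactive = below 50% or failed in later tests; about a fifth of its hits are not listed in these tables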;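 note: calls also rest on retests at 20 µM and on dose response follow-up; controls were probe without protein and protein plus probe with vehicle; some compounds called inactive have numbers as strong as hits; many hits fall short of the cut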
Target sequence (P11940 whole entry, looked up): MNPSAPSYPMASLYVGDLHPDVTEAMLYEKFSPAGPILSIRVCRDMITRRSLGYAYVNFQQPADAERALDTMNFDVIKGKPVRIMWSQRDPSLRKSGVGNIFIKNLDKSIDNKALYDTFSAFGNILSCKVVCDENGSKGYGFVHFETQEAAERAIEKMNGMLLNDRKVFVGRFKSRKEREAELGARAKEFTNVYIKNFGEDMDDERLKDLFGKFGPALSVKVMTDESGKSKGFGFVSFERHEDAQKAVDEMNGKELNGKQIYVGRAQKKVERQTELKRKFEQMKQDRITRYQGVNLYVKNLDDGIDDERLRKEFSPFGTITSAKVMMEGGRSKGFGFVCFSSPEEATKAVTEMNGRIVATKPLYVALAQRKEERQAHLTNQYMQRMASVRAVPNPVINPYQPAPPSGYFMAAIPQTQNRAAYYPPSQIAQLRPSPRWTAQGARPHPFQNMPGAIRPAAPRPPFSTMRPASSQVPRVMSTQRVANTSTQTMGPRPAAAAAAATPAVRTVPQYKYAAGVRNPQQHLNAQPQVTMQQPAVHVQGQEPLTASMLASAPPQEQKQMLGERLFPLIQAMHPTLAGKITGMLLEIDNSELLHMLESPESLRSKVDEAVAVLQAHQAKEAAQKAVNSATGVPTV
Env fusion inh – HIV envelope-mediated fusion inhibition; inhibition, % at 12.3 µM; HeLa-JRFL Env/CEM21 cell fusion, luciferase; 1.1% of 360,000 active;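 active = mean replicate inhibition score of at least 50 and every replicate individually at or above 50; inconclusive = only one of the two criteria met; inactive = mean below 50 and not all replicates reaching 50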;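 note: 0% = plate neutral controls and 100% = maraviroc near 300 nM; one replicate is shown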
eIF4H FP inh – inhibitors of RNA binding by human eIF4H | Q15056 | eIF4H fluorescence polarization binding assay | inhibition, % at 35 µM | 0.94% of 290,000 active;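 active = 50% or more with normal probe brightness, or confirmed in later tests; inconclusive = above 50% with abnormal brightness, or retests that disagree; inactive = below 50% or failed in later tests; about a fifth of its hits are not listed in these tables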;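 note: calls also rest on retests at 20 µM and on dose response follow-up; 0% = protein and probe with vehicle and 100% = probe without protein; strong numbers were not always called active; many hits fall short of the cut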
CSC inhib – blocks cancer stem cells; cancer stem cell-like cells viability, luminescence; inhibition, % at 7.5 µM; 1.1% of 300,000 active;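 active = mean at 75% or more and at least half the replicates too; inconclusive = mean and replicates disagree; tested in HMLE shEcad cells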;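 note: 0% = median of negative and 100% = median of positive control wells; the first replicate is given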
Yeast UUG start – modulators of start codon recognition fidelity in yeast; activity score, % at 18.7 µM; AID 602363; S. cerevisiae UUG-firefly luciferase reporter, luminescence/redox ratio; 0.13% of 350,000 active;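 active = replicate mean at a twofold rise or more, about +100% in these data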;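 note: firefly luciferase made from a UUG start codon reports start codon fidelity; reporter light over untreated wells divided by growth signal over untreated wells; some hits fall short of that in this replicate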
Rce1 inh – yeast Ras-converting enzyme inhibition; yeast membranes, quenched prenylated peptide cleavage fluorescence; Q03530; 0.27% of 290,000 active; calls only;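 active = fall in fluorescence gain of 50% or more versus controls, with final raw signal at or below 3038400; inconclusive = same 50% fall but final raw signal above 3038400; inactive = fall in fluorescence gain under 50%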;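 note: plate controls were neutral control wells for no effect and wells lacking membranes for full effect; tested at 10 µM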
Target sequence (Q03530 whole entry, looked up): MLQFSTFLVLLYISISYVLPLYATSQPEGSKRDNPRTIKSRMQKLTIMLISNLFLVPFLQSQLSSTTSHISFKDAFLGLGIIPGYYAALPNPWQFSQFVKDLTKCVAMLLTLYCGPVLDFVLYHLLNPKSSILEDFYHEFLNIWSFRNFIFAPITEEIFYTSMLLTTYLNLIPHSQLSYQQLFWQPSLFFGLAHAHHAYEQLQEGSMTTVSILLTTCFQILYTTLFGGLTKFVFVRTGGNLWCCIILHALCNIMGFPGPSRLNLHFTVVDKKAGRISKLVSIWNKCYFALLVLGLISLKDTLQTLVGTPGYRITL
MT1-MMP act inh – inhibitors of human MT1-MMP activation; AID 651647; P50281; 0.061% of 360,000 active; HT1080 RFP-PRO-GFP cells, GFP/RFP ratio fluorescence, overnight; percent of plate control window, DMSO zero; GFP/RFP ratio change, % at 20 µM;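 active = GFP/RFP ratio change of at least 30% with cell ATP level not reduced by more than half and red fluorescence within 50% of control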; note: strong numbers were not always called active
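system = RFP-PRO-GFP reporter HT1080 cells | dosing = 20 µM single dose, 1% DMSO | timing = overnight cell settling, then overnight compound exposure, 37 °C, 5% CO2 | read-out basis = GFP/RFP fluorescence ratio | controls = DMSO and RFP-L50D-GFP cell wells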
MT1-MMP act inh RFP – recorded beside MT1-MMP act inh, whose call it bears; RFP signal change, %; measured here: RFP expression control read;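 0 = vehicle wells; hits needed this value within 50% of zero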
* = called active by the depositor; i = inactive; ? = inconclusive; . = not tested or not shown; & = joins results of further samples; [ ] = another dose, or the depositor's remark. The list is partial (hit frequency here may not be typical).

Every second line gives: PABP FP inh, Env fusion inh, eIF4H FP inh, CSC inhib, Yeast UUG start, Rce1 inh, MT1-MMP act inh, MT1-MMP act inh RFP
(1) CCN(CC)C(=O)C(C)N(C#N)c1nc(NC(C)C)nc(NC(C)C)n1 (stereo unspecified)
    -4.7, 7.6, -5.8, 0.0, -15.3, ., 15.0, -2.4
(2) CCOc1ccc(S(=O)(=O)NCc2ccc3c(c2)OCO3)cc1NC(C)=O
    0.7, -0.1, -10.3, -7.0, -3.1, i, -1.3, -1.4
(3) O=C(CSc1ncn[nH]1)N1CCOCC1
    -4.3, 2.0, -2.0, 6.4, ., i, -1.9, 5.8
(4) CC(C)Oc1cccc(C(=O)NC(=S)Nc2cccc(C(F)(F)F)c2)c1
    -0.6, ., 1.8, 27.8, -9.1, i, 0.8, -1.5
(5) Cc1cccc(NC(=O)C2CCN(c3ncnc4c3nc3n4CCCCC3)CC2)n1
    8.3, 10.7, -2.1, 1.6, 11.8, i, 3.6, -10.4
(6) Fc1ccccc1-n1cc(-c2ccccc2)[nH]c1=S
    8.5, -14.6, -8.4, -9.0, -19.9, i, -1.3, 0.5
(7) CC(C)CC1=NN2C(=N)/C(=C\c3coc4ccccc4c3=O)C(=O)N=C2S1
    2.0, 20.9, ?, ., -32.9, i, -57.9, -1.2
(8) CC(C)(C)c1[nH]nc2c1C(Cc1ccccc1)C(C#N)=C(N)O2 (stereo unspecified)
    -3.0, ., -0.1, -2.9, -20.0, i, 4.8, 6.1
(9) CC(C)c1cccc(C(C)C)c1NC(=O)Cn1c(=O)cnc2ccccc21
    -4.7, -0.5, -8.6, -7.2, -14.3, i, -2.9, 1.9
(10) COc1ccc(C(=O)NC(NC(=O)c2ccc(OC)cc2)c2ccccc2F)cc1
    -7.8, -0.4, -7.5, -0.7, -7.3, i, 0.6, -1.7
(11) O=C1c2ccccc2-c2c1cccc2C(=O)N1CCCCC1
    -8.8, ., 2.2, 3.6, -9.4, i, 4.9, 9.2
(12) O=c1[nH]c(SCc2nc3c(cnn3-c3ccccc3)c(=O)[nH]2)nc2ccccc12
    -19.6, ., -7.6, ., -3.6, ., -0.8, -4.6
(13) O=C(Nc1cccc2c1CCCC2)c1ccc(F)cc1
    ., 4.6, ., 2.7, ., i, 2.5, -2.9
(14) CC(=O)N1CC(C)Sc2ccc(S(=O)(=O)NCCc3cccc(C)c3)cc21 (stereo unspecified)
    9.2, 7.9, -1.5, -0.2, 20.8, i, 2.8, -12.7
(15) Cc1ccc2c(c1)CO[C@]21O[C@H](CCO)C[C@H](O)[C@H]1O
    ., 20.7, ., ., -11.2, ., 2.7, 1.7
(16) Cc1cc2c(cc1C)N(Cc1ccc(Cl)cc1)C1=NCCCN12
    ., -27.6, ., 6.3, ., i, 0.2, -0.4
(17) CN(CC(=O)Nc1c(Cl)cccc1Cl)C(=O)c1ccc2nc[nH]c2c1
    ., ., ., -2.0, ., i, -0.1, 0.1
(18) CCOC(=O)c1nc2cc3n(c(CC(C)C)c-2c1C)CC(C)=C3C
    17.0, -105.5, 22.4, 16.3, -3.5, i, -19.4, 7.0
(19) Cc1ccc(OCc2nnc(NC(=O)Cc3cccs3)s2)cc1
    5.3, -72.8, -5.1, ., ., i, ., .
(20) O=C(O)CCC1C(=O)NC(=O)CC1c1ccccc1 (stereo unspecified)
    ., -1.3, ., ., -13.4, ., 0.7, -1.6
(21) CC1CCCC(C)N1C(=O)COC(=O)/C=C/c1ccco1 (stereo unspecified)
    ., ., ., -1.7, -21.3, ., -1.8, 5.6
(22) O=C(CN1CCN(S(=O)(=O)N2CCCCCC2)CC1)Nc1ccc(Br)cc1
    2.8, -25.2, -1.6, 12.7, -0.1, i, 2.9, 0.7
(23) O=C(Nc1ccc(N2CCCC2)c(Cl)c1)c1cccc(-c2cc3ccccc3oc2=O)c1
    -12.0, -15.2, -6.8, 2.2, ., i, 4.0, 4.3
(24) O=C(CN1C(=O)COc2ccc(Cl)cc21)Nc1ccc(N2CCOCC2)cc1
    -1.1, -124.3, 1.3, -7.1, -2.7, i, 1.2, 0.1
(25) COc1cc(C=C2CCCC(=Cc3ccc(OCC4CO4)c(OC)c3)C2=O)ccc1OCC1CO1 (stereo unspecified)
    ., -54.7, ., ., -14.9, ., -26.3, -2.7
(26) COc1cc2c(cc1OC)C(c1cc3cc4c(cc3[nH]c1=O)OCO4)N(C(=O)C1CC1)CC2 (stereo unspecified)
    6.8, ., -8.6, 6.1, -8.4, i, 3.4, 6.1
(27) Cc1ccc([C@@H]2CC(=O)[C@@H]3CN(S(=O)(=O)c4ccc(C)cc4)[C@H](c4cccc(Cl)c4)C[C@@H]3N2S(=O)(=O)c2ccc(Cl)cc2)cc1
    ., 34.9, ., ., -17.5, ., -10.7, -11.2
(28) CCOc1ccc(N(C(=O)c2ccc(S(=O)(=O)N3CCCC3)cc2)C2C=CS(=O)(=O)C2)cc1 (stereo unspecified)
    -12.5, -19.5, -3.8, -10.4, 12.5, i, -6.1, 1.0
(29) COc1ccc2nc(-c3ccc(Cl)cc3)cc(C(=O)O)c2c1
    10.4, -20.2, 0.2, -6.2, -6.4, i, 5.7, 3.4
(30) Cc1[nH]c2ccccc2c1C(=O)CN1CC(C)OC(C)C1 (stereo unspecified)
    -2.1, ., -6.4, -8.3, ., i, ., .

Going on with the list.
Every second line gives: PABP FP inh, Env fusion inh, eIF4H FP inh, CSC inhib, Yeast UUG start, Rce1 inh, MT1-MMP act inh, MT1-MMP act inh RFP
(31) COc1ccc(N2CCN(C(=O)NC3CCCCC3)CC2)cc1
    -0.2, ., -7.3, 9.2, -8.6, i, -0.2, -1.2
(32) COc1ccc2nc(N/C(=N/S(=O)(=O)c3cccs3)c3ccccc3Cl)sc2c1
    -4.6, -13.0, -4.6, 2.1, ., i, -0.1, 0.9
(33) CN(C)CCN(Cc1ccco1)S(=O)(=O)c1csc(C(N)=O)c1
    -3.4, 1.9, 17.2, -16.7, ., i, -0.8, 2.9
(34) Cc1ccc(NC(=O)Nc2ccc3c(c2)OCO3)c(Br)c1
    -1.0, -14.0, -5.2, 20.9, 0.7, i, -6.1, -4.5
(35) O=c1c2ccccc2ncn1Cc1ccc(Cl)cc1
    2.3, ., 3.9, -1.4, ., i, 0.1, 3.0
(36) COc1cc(S(=O)(=O)n2nnc3ccccc32)c(OC)cc1Cl
    -6.9, -22.9, -4.5, -17.9, -6.9, i, -2.6, 0.8
(37) CC(C)Oc1ccc(CNC(=O)c2ccc3nc(N4CCOCC4)sc3c2)cc1
    -18.5, 3.0, -4.5, 14.5, -10.9, i, 3.9, -4.2
(38) O=C(/C=C/Nc1ccccc1)C(F)(F)F
    -8.9, -3.6, -6.7, 21.5, ., i, 1.2, 3.7
(39) C#CCOCCOCCOCCNc1nc(N2CCN(C(=O)[C@H]([C@@H](C)CC)n3cc([C@@H](N)CO)nn3)CC2)nc(N2CCN(C(=O)[C@H](Cc3cc4ccccc4[nH]3)n3cc([C@@H](N)Cc4ccc(O)cc4)nn3)CC2)n1
    1.2, ., 8.1, 13.6, ., i, ., .
(40) Cc1ccc(-c2nnc3sc(-c4ccncc4)nn23)cc1
    -2.8, ., 7.6, 5.4, -19.2, i, -1.5, -1.2
(41) CCOC(=O)C1=C(c2ccccc2)NC(=O)NC1c1ccc(OC)c(OC)c1 (stereo unspecified)
    -14.1, 3.3, -6.2, -10.2, ., i, -0.1, 3.4
(42) CSCCC(NS(=O)(=O)/C=C/c1ccccc1)C(=O)NCCc1ccc(S(N)(=O)=O)cc1 (stereo unspecified)
    -1.2, 8.2, -13.5, 7.4, -0.9, i, 1.8, -3.9
(43) Cc1cc(C(C)(C)C)oc1C(=O)Nc1ccc(CC(=O)O)cc1
    -4.6, ., -6.6, -1.6, -3.0, i, 8.7, 5.5
(44) Cc1ccc(NC(=O)CSCC(=O)NCc2ccco2)cc1
    ., -6.0, ., 0.8, ., i, 0.8, -2.0
(45) CCC1(C)Cc2c(sc3nc(SC)n(Cc4ccccc4)c(=O)c23)CO1 (stereo unspecified)
    -1.8, ., 1.0, 95.8*, -5.0, i, 2.9, -4.9
(46) C=CCSc1nccc(=O)[nH]1
    -4.5, 5.1, -4.0, 6.1, ., i, 7.5, 10.0
(47) O=C(CCNC(=O)c1ccc(Cl)cc1)Nc1ccncc1
    ., -6.9, ., -0.5, -18.4, i, 5.8, -10.2
(48) COc1ccc(-c2oc3cc(OC(C)=O)cc(OC(C)=O)c3c(=O)c2OC)cc1
    ., 1.9, ., ., -8.6, ., -1.2, -1.5
(49) O=C(O)C1CCCCC1C(=O)Nc1cc(Cl)ccc1Cl (stereo unspecified)
    -7.7, -32.4, 2.4, 4.6, ., i, ., .
(50) CC(C)c1ccc(OCC(=O)NN2C(=O)c3ccccc3C2=O)c(Br)c1
    4.1, -6.5, -7.0, ., 1.5, i, 1.2, 0.3
(51) O=C(COc1cc2oc(=O)c3c(c2cc1Cl)CCC3)NCc1ccccn1
    -8.1, ., -1.6, 10.9, -6.7, i, 0.2, 3.5
(52) O=C(NCc1nc2ccccc2[nH]1)C1=C[C@H](c2ccccc2)C[C@H](OCCCCO)O1
    -2.3, -17.7[16.7 µM], -6.6, -21.2, 27.6&-8.1, i, 1.8, -1.6
(53) O=C(CCCn1cc([N+](=O)[O-])cn1)Nc1cccnc1
    -9.6, -10.6, 3.5, -7.9, -2.9, i, -1.6, 2.5
(54) CCCC(=O)N1CCC1(C)C(=O)Nc1ccc(-n2cncn2)cc1 (stereo unspecified)
    ., -19.2, ., ., -22.3, ., -0.6, 0.5
(55) Cc1ccc(SC(=O)COc2ccccc2C)cc1
    -14.8, -50.5, 3.7, 14.5, -30.7, i, -3.8, -1.2
(56) Cc1cc(C(F)(F)F)nc2c(Cl)c(C(C)(C)C)nn12
    4.3, -2.8, -11.0, -6.1, -15.9, ., -0.4, 0.1
(57) Cc1csc(NC(=O)[C@@H]2CCCN2C(=O)c2cccs2)n1
    -20.6, 12.3, -4.4, -8.0, -5.2, i, -6.2, 1.2
(58) CCN(CC)c1ncnc2c1ncn2[C@H]1CN(Cc2ccccc2)C[C@@H](COC(C)=O)O1
    ., 5.4, ., ., -6.1, ., 1.3, -0.2
(59) CCCCOc1ccc(CN2CCSCC2)cc1
    6.1, 2.1, 14.6, -9.2, -4.3, i, -2.3, -3.6
(60) Cc1nn(C)c(C)c1NS(=O)(=O)c1ccc(N2CCCC2=O)cc1
    -7.1, 26.2, -2.6, 26.3, ., i, -1.0, -12.1

(continued)
Every second line gives: PABP FP inh, Env fusion inh, eIF4H FP inh, CSC inhib, Yeast UUG start, Rce1 inh, MT1-MMP act inh, MT1-MMP act inh RFP
(61) COc1ccc(N(CC(=O)NCCSCc2c(F)cccc2Cl)S(C)(=O)=O)cc1OC
    2.7, ., 9.1, -1.0, ., i, 1.0, -3.5
(62) O=C(CC(c1ccco1)C1CCCCC1=O)c1ccco1 (stereo unspecified)
    11.6, ., 15.0, -3.4, -4.1, i, -1.8, 1.8
(63) COc1cccc(/C=N/NC(=O)CO/N=C(\C)c2cccs2)c1OC
    4.8, ., -0.8, -0.8, ., i, 2.6, 0.3
(64) O=C(Nc1ncc(Cc2cccc(C(F)(F)F)c2)s1)c1ccc(-c2cccc([N+](=O)[O-])c2)o1
    -13.3, ., 8.4, 55.4, -14.4, i, -3.8, -24.4
